# Env fusion inh = blocks HIV Env-driven cell-cell fusion | HeLa-JRFL Env/CEM21 cell fusion, luciferase | inhibition, % at 12.3 µM | 360,000 compounds, 1.1% hits | AID 651610;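 active means mean replicate inhibition score of at least 50 and every replicate individually at or above 50; inconclusive means only one of the two criteria met; inactive means mean below 50 and not all replicates reaching 50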;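 further: 0% = plate neutral controls and 100% = maraviroc near 300 nM; one replicate is shown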
# Rce1 inh = inhibitors of yeast Ras-converting enzyme; Q03530; yeast membranes, quenched prenylated peptide cleavage fluorescence; calls only; 290,000 compounds, 0.27% hits; AID 2563;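 active means fall in fluorescence gain of 50% or more versus controls, with final raw signal at or below 3038400; inconclusive means same 50% fall but final raw signal above 3038400; inactive means fall in fluorescence gain under 50%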;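 further: plate controls were neutral control wells for no effect and wells lacking membranes for full effect; tested at 10 µM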
# Target sequence (Q03530 whole entry, looked up): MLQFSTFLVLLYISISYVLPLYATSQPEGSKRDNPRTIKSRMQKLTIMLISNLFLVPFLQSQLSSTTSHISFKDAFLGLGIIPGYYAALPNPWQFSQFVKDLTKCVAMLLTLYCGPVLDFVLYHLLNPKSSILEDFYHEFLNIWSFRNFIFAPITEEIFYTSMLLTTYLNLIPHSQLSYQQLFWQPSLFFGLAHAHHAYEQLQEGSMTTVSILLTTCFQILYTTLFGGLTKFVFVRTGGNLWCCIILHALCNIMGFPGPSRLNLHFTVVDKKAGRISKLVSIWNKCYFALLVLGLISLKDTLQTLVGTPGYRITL
# UUG fidelity = alters start codon recognition fidelity in yeast | S. cerevisiae UUG-firefly luciferase reporter, luminescence/redox ratio | activity score, % at 18.7 µM | 350,000 compounds, 0.13% hits | AID 602363;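 active means replicate mean at a twofold rise or more, about +100% in these data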;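 further: firefly luciferase made from a UUG start codon reports start codon fidelity; reporter light over untreated wells divided by growth signal over untreated wells; some hits fall short of that in this replicate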
# PABP FP inh = PABP-poly(A) binding inhibition; P11940; PABP-poly(A) RNA binding, fluorescence polarization; inhibition, % at 35 µM; 290,000 compounds, 1% hits; AID 2014;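 active means 50% or more with normal probe brightness, or confirmed in later tests; inconclusive means above 50% with abnormal brightness, or retests that disagree; inactive means below 50% or failed in later tests; about a fifth of its hits are not listed in these tables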;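 further: calls also rest on retests at 20 µM and on dose response follow-up; controls were probe without protein and protein plus probe with vehicle; some compounds called inactive have numbers as strong as hits; many hits fall short of the cut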
# CSC inhib = cancer stem cell inhibition. inhibition, % at 7.5 µM. 300,000 compounds, 1.1% hits. cancer stem cell-like cells viability, luminescence;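 active means mean at 75% or more and at least half the replicates too; inconclusive means mean and replicates disagree; tested in HMLE shEcad cells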;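 further: 0% = median of negative and 100% = median of positive control wells; the first replicate is given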
# eIF4H inh = inhibitors of RNA binding by human eIF4H | 290,000 compounds, 0.94% hits | inhibition, % at 35 µM | eIF4H fluorescence polarization binding assay;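 active means 50% or more with normal probe brightness, or confirmed in later tests; inconclusive means above 50% with abnormal brightness, or retests that disagree; inactive means below 50% or failed in later tests; about a fifth of its hits are not listed in these tables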;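 further: calls also rest on retests at 20 µM and on dose response follow-up; 0% = protein and probe with vehicle and 100% = probe without protein; strong numbers were not always called active; many hits fall short of the cut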
# MT1-MMP act inh = blocks activation of human MT1-MMP; P50281; HT1080 RFP-PRO-GFP cells, GFP/RFP ratio fluorescence, overnight; percent of plate control window, DMSO zero; GFP/RFP ratio change, % at 20 µM; 360,000 compounds, 0.061% hits;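 active means GFP/RFP ratio change of at least 30% with cell ATP level not reduced by more than half and red fluorescence within 50% of control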; further: strong numbers were not always called active
#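 Assay system: RFP-PRO-GFP reporter HT1080 cells; read-out basis: GFP/RFP fluorescence ratio; benchmarks: DMSO wells and RFP-L50D-GFP cells; doses: 20 µM single dose, 1% DMSO; schedule: overnight cell settling, then overnight compound exposure, 37 °C, 5% CO2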
# MT1-MMP act inh RFP = further read-out of MT1-MMP act inh, marked with its call; RFP signal change, %; measured here: RFP expression control read;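 0 = vehicle wells; hits needed this value within 50% of zero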
# Active calls of the source: *; i = inactive; ? = inconclusive; · = not tested or not shown.
SMILES,Env fusion inh,Rce1 inh,UUG fidelity,PABP FP inh,CSC inhib,eIF4H inh,MT1-MMP act inh,MT1-MMP act inh RFP
CN(C)C(=O)NCc1ccc(S(N)(=O)=O)cc1,-71.4,i,·,-2.0,-1.6,-5.0,-0.1,6.3
O=C(CN(c1ccc2c(c1)OCCO2)S(=O)(=O)c1ccccc1)NCc1ccc(Cl)cc1,·,i,14.8,11.4,-5.6,5.7,1.2,4.2
C=CCn1c(=O)n2ncnc2c2c3c(sc21)CCCC3,·,i,·,-0.4,-6.6,-7.2,-6.9,0.2
COc1cc(NC(=O)c2cccs2)ccc1NC(=O)c1ccco1,-156.6,i,-7.8,-1.6,18.8,-2.6,5.8,3.9
Cc1nn(C(C)(C)C)c(OC(=O)c2ccco2)c1Sc1ccccc1,-25.0,i,2.8,-7.8,-0.9,4.9,5.5,-3.5
CN1C2CCC1CC(NS(=O)(=O)c1ccc(C#N)cc1)C2 (centres undefined),-0.1,i,-25.6,5.7,-3.8,8.8,-4.9,3.3
COc1ccc(NC(=O)c2cc(-c3ccccc3OC)on2)cc1,-157.8,i,-10.8,-9.3,79.7*,0.4,4.3,-10.4
CCOC(=O)C1(Cc2cccc(OC)c2)CCCN(C(=O)CCc2cccnc2)C1 (centres undefined),-14.8,i,·,-9.1,9.4,-10.1,1.6,3.5
CC(C)NC(=O)CCc1nnc(Cc2cccc(C(F)(F)F)c2)o1,-13.9,i,-11.6,7.8,1.1,3.7,0.7,-0.3
CCSc1nnc(NC(=O)c2ccc3ccccc3n2)s1,·,i,·,-1.2,20.3,1.3,0.6,-7.4
COc1cc(F)ccc1-c1cc(C(=O)NCc2cc(C(F)(F)F)cc(C(F)(F)F)c2)[nH]n1,-2.1,·,-13.9,·,·,·,-0.8,-2.1
NC(=O)[C@H]1CC2(CC(c3cccc(NC(=O)CC(c4ccccc4)c4ccccc4)c3)=NO2)CN1C(=O)CC(c1ccccc1)c1ccccc1 (some centres undefined),-22.1,i,-6.1,0.7,13.2,-2.3,-3.0,-7.3
NC(=O)c1cc(S(=O)(=O)NCCc2ccc(S(N)(=O)=O)cc2)cs1,1.1,i,-16.7,-8.3,0.2,-7.5,1.7,7.4
O=C(COC(=O)c1cc([N+](=O)[O-])ccc1N1CCOCC1)Nc1cc(F)ccc1F,-16.3,·,2.7,·,16.7,·,-5.8,-2.9
O=C(COC(=O)c1ccccn1)c1cccc(Br)c1,-20.8,i,-16.8,7.9,4.5,4.0,1.2,9.3
Cc1ccc(Cl)cc1Nc1nc(N2CCOCC2)nc(N2CCOCC2)n1,7.2,i,2.1,2.7,-5.5,-14.0,-1.1,-3.8
Cc1ccc(/C=C/C(=O)NCc2ccc3c(c2)OCO3)o1,-1.6,i,·,4.8,17.3,-5.2,-2.1,4.3
CCOC(=O)COc1ccc2c(=O)c(-c3ccc(OC)c(OC)c3)c(C(=O)OCC)oc2c1,13.2,i,-0.8,0.1,-17.1,-5.2,-4.0,-1.6
Cn1cnc2c1c(=O)n(Cc1ccc(F)cc1Cl)c(=O)n2C,·,i,-20.7,-4.5,-12.8,7.2,1.3,-2.9
Cc1ccc(S(=O)(=O)N2CCN(c3ncccn3)CC2)c(C)c1,-42.1,i,11.4,-10.3,-2.1,3.0,-0.2,-5.3

# Overlap with the part before: 5 compounds; new compounds follow.
SMILES,Env fusion inh,Rce1 inh,UUG fidelity,PABP FP inh,CSC inhib,eIF4H inh,MT1-MMP act inh,MT1-MMP act inh RFP
Cc1ccc(Cl)cc1Nc1nc(N2CCOCC2)nc(N2CCOCC2)n1,7.2,i,2.1,2.7,-5.5,-14.0,-1.1,-3.8
Cc1ccc(/C=C/C(=O)NCc2ccc3c(c2)OCO3)o1,-1.6,i,·,4.8,17.3,-5.2,-2.1,4.3
CCOC(=O)COc1ccc2c(=O)c(-c3ccc(OC)c(OC)c3)c(C(=O)OCC)oc2c1,13.2,i,-0.8,0.1,-17.1,-5.2,-4.0,-1.6
Cn1cnc2c1c(=O)n(Cc1ccc(F)cc1Cl)c(=O)n2C,·,i,-20.7,-4.5,-12.8,7.2,1.3,-2.9
Cc1ccc(S(=O)(=O)N2CCN(c3ncccn3)CC2)c(C)c1,-42.1,i,11.4,-10.3,-2.1,3.0,-0.2,-5.3
CCOC(=O)c1ccc(NC(=S)NCCCN2CCN(C3CCCCC3)CC2)cc1,-3.9,i,-3.8,-2.3,8.3,-18.6,2.1,-7.8
CC(C)CN1CCN(Cc2cccn2-c2ccccn2)CC1CCO (centres undefined),-40.6,i,-13.3,10.7,-0.4,4.7,-2.9,2.2
O=C(CN1CCN(Cc2ccc3c(c2)OCO3)CC1)N1CCc2[nH]c3ccc(F)cc3c2C1,·,i,12.6,-5.8,2.5,8.4,-1.8,-6.4
O=C(NCCN1C(=O)S/C(=C\c2ccccc2F)C1=O)C1=COCCO1,-3.8,i,·,·,50.6,·,·,·
COc1ccc(C/C(C)=N/NC(=O)c2cc(C)oc2C)cc1,0.0,i,·,11.3,0.5,-4.8,2.2,2.3
Cc1ccc(C)c(N(C(=O)CNC(=O)c2ccco2)C(C(=O)NCC2CCCO2)c2ccccc2)c1 (centres undefined),-13.7,i,2.1,-0.9,5.0,-1.5,-2.8,-1.1
CCOC(=O)/C=C1\SCC(=O)N1CC(=O)NC(C)c1ccccc1 (centres undefined),·,i,0.0,-5.7,22.5,-0.2,-6.8,-3.1
NC(=O)c1ncn([C@@H]2O[C@H](CNCc3ccc(OCC(=O)Nc4nccs4)cc3)[C@@H](O)[C@H]2O)n1,3.1,·,-11.1,·,·,·,0.4,2.1
Cc1ccc(Nc2nnc(C)c3ccccc23)c(C)c1,19.9,i,·,·,-2.6,·,2.4,-0.8
CC(=O)Nc1ccc(NC(=O)CSC2=NS(=O)(=O)c3cc(F)ccc3N2)cc1,-0.8,i,-12.6,·,9.4,·,2.6,-1.7
O=C(Nc1ccc2c(c1)OCO2)c1ccc(S(=O)(=O)N2CCCC2)cc1,11.7,i,·,2.8,6.0,-3.7,-1.4,-2.5
CCN(CC(=O)Nc1ccccc1OC)C(=O)C1CC2C=CC1C2 (centres undefined),-31.4,i,10.2,-14.4,-4.6,6.7,-4.1,-5.2
CC(=O)c1ccc(N2CCN(C(=O)CCC(=O)Nc3ccc4nc(N5CCN(C)CC5)cc(C)c4c3)CC2)cc1,4.4,i,-3.7,15.9,40.1,-5.2,-1.4,-0.3
Cc1nnsc1SCCNC(=O)c1c(F)cccc1F,·,i,·,-2.4,-12.4,-5.8,1.6,4.7
Cc1cc(S(=O)(=O)NCc2ccncc2)c(C)cc1Br,8.4,i,-12.5,-7.6,-3.2,-3.4,9.1,-29.3
CC12OC1C1(O)CCCC1=CC2=O (centres undefined),·,i,·,8.6,-14.2,-13.3,·,·
O=C1OCCC1Sc1nc2ccccc2n1-c1ccccc1 (centres undefined),·,i,-5.6,8.3,-14.2,-3.5,-2.4,-0.1
CCNC(=O)C1(C)CCN(C(=O)c2ccccc2C(F)(F)F)C1 (centres undefined),9.4,·,-24.3,·,·,·,4.4,7.0
CCCCc1ccc(NC(=O)CN(C)CC(=O)Nc2ccccc2Cl)cc1,-129.5,i,-9.0,-0.1,8.0,-0.3,-4.5,-2.7
Cc1ccc(Nc2nc(N3CCOCC3)nc(N3CCOCC3)n2)cc1,?,i,-10.5,-12.6,19.9,-2.9,-6.0,-4.8
Cc1ccc(C2N(c3cccc(Cl)c3)C(=O)C3CCCN32)o1 (centres undefined),7.6,i,12.9,4.0,-7.4,-0.1,1.4,3.0
Cc1c(CC(=O)NCCCCCC(=O)O)c(=O)oc2cc3occ(-c4ccccc4)c3cc12,10.2,i,-9.3,15.4,-4.2,6.0,-2.8,0.1
Cc1ncc([N+](=O)[O-])n1CC(=O)NC(C)(C)C,-1.1,i,·,7.7,-9.8,-4.1,-5.1,-1.7
O=C1[C@H]2[C@H](C=CC[C@H]2C(=O)N2CCOCC2)CCN1Cc1ccc(Cl)c(Cl)c1,5.4,i,·,·,-8.3,·,·,·
O=C(Nc1nc(N2C(=O)c3ccccc3C2=O)n(-c2ccccc2)n1)c1ccc(Cl)cc1,12.7,i,-21.7,3.2,9.1,-1.4,4.3,3.9
CSc1cccc(NC(=O)C2CCCN(c3ncnc4c3nc3n4CCCCC3)C2)c1 (centres undefined),19.7,i,-4.6,14.0,41.9,2.5,-2.1,-11.1
CCc1ccccc1N(C(=O)c1snc(C(N)=O)c1N)C(C(=O)NCC1CCCO1)c1ccc(OC)c(OC)c1 (centres undefined),5.2,i,-9.9,-0.2,·,0.6,2.3,-3.8
CC(C)(C)OC(=O)N1CCCC1C(=O)N1CCc2ccccc21 (centres undefined),-25.2,i,-6.4,-10.9,-9.2,-20.6,5.3,3.2
COc1ccc(/C=N/NC(=O)CNC(=O)c2ccc3c(c2)OCCO3)c(C(=O)O)c1OC,-0.9,i,-6.9,-10.0,-1.9,7.8,-1.4,1.6
Cc1ccc(N2C(=O)NC(NC(=O)C(C)(C)C)(C(F)(F)F)C2=O)cc1C (centres undefined),0.9,i,1.0,-5.5,-4.2,-10.0,-1.2,-0.2
COc1ccc(-c2nn(-c3ccccc3)cc2CO)cc1OC,1.2,i,-0.4,-5.6,6.6,-4.8,2.8,0.2
Fc1ccc(-c2[nH]ncc2-c2nnnn2-c2ccccc2)c(F)c1,-10.3,i,-16.6,0.4,-11.7,-2.5,-2.5,0.9
COc1ccc(C(=O)NCC(c2cccs2)N2CCc3ccccc32)c(OC)c1 (centres undefined),14.8,i,-18.5,·,-8.2,·,0.0,-6.9
O=C(COC(=O)c1cccnc1)Nc1ccccc1,·,i,-6.0,3.1,8.6,-4.5,-5.5,-1.4
COc1ccc(OC)c(NC2=C(Cl)C(=O)N(Cc3ccccc3)C2=O)c1,-0.5,i,1.0,0.2,9.2,3.6,1.6,2.8
CC(C)Cc1cc(C(=O)N2CCN(c3ccc(F)cc3)CC2)no1,12.0,i,-5.5,-14.2,7.4,-6.8,4.3,-8.2
Cc1ccccc1N=C(NO)c1cccnc1,-8.1,i,-12.6,7.7,-1.8,0.2,-0.4,1.1
CN1CCc2c(sc(NC(=O)c3ccc(S(=O)(=O)N4CCOCC4)cc3)c2C(N)=O)C1,·,i,-8.9,-7.4,-7.2,-1.6,-8.6,4.5
O=[N+]([O-])c1cccc(-c2nnn(C34CC5CC(CC(C5)C3)C4)n2)c1,·,i,-14.2,-9.6,52.0,2.4,-4.9,0.4
O=C1CN(C(=O)COC(=O)c2ccco2)c2ccccc2N1,-3.5,·,-12.9,·,·,·,-2.4,1.3
CCc1cccc(NC(=O)C2CCCC2)c1,-18.5,i,-16.1,-7.4,-7.8,-0.1,-0.2,2.4
CC1(C)CC(=O)C=C(NCCN2CCN(C(=S)NC3CCCCC3)CC2)C1,-1.2,i,·,-11.9,-12.9,-1.7,-1.2,2.0
C/C(=N\OC(=O)c1c(-c2ccccc2Cl)noc1C)c1ccncc1,21.3,i,·,-1.5,-13.7,-14.0,-6.3,-7.6
CCOc1ccccc1NC(=O)CCNC(=O)Cn1ccc2ccccc2c1=O,15.1,i,-8.3,2.5,-5.4,7.9,0.5,-1.1
CCCc1nc2ccccc2c(=O)n1CC(=O)c1ccc(OC)cc1,-2.9,i,-7.8,10.2,-0.4,-3.7,0.5,-1.9
CCCCCn1nc(C)c2c(C)cc(=O)[nH]c21,·,i,-11.0,4.1,-4.3,-6.5,0.7,8.9
COc1ccc(OC)c(NC(=O)COC(=O)c2ccc(S(=O)(=O)N3CCCCC3)cc2)c1,-300.5,·,-22.7,·,·,·,-0.6,3.9

# Screening results from PubChem BioAssay.
